M. tuberculosis HTS = M. tuberculosis growth inhibition, HTS (AID 449762); one-dose inhibition, % at 25 µM; IC50 in µM for titrated hits; 0.59% of 330,000 active; M. tuberculosis H37Rv growth inhibition, 7H9 media; higher % means a stronger effect; in the data active = a potency from the dose series; inconclusive = inhibition above about 70% without an active follow-up result;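 note: bacterial growth assessed after seven days of incubation; strong numbers were not always called active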
VEEV TC-83 Vero = inhibitors of VEEV TC-83 cytopathic effect, confirmation, Vero cells (AID 588727); Vero cells, VEEV TC-83 cytopathic effect inhibition; higher % means a stronger effect; inhibition, % at 20 µM; hits with a dose series show IC50 in µM; 0.13% of 350,000 active; in the data active = a potency from the dose series; inconclusive = inhibition mostly from about 14% at the one dose, without a potency; inactive = the rest, 99 in 100 with inhibition below about 12%; note: strong numbers were not always called active
tuberculosis growth = growth inhibition of non-replicating M. tuberculosis (AID 488890) | one-dose inhibition, % at 25 µM; IC50 in µM for titrated hits | Mycobacterium tuberculosis non-replicating, growth inhibition; higher % means a stronger effect | 0.39% of 320,000 active; in the data active = a potency from the dose series; inconclusive = inhibition mostly from about 82% at the one dose, without a potency; inactive = the rest, 99 in 100 with inhibition below about 76%;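 note: plate controls were DMSO cells for no effect and high antibiotic wells for full effect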
The depositor's hits bear a star; i = inactive; ? = inconclusive; nt = not tested or not shown; & = joins results of further samples.

# | compound | M. tuberculosis HTS | VEEV TC-83 Vero | tuberculosis growth
1 | COc1cccc(C=NCC(C)N=Cc2cccc(OC)c2O)c1O (stereo not given) | -2.3% | 1.1% | -3.4%
2 | C=C1C[C@]23C[C@@]1(O)CC[C@H]2[C@@]12C=C[C@H](O)[C@@](C)(C(=O)O1)[C@H]2[C@@H]3C(=O)O | 0.1%&-9.2% | 0.2%&0.5% | -0.4%&-5.3%
3 | C=C1C(=O)O[C@@H]2C[C@@H](C)[C@@H]3C=CC(=O)[C@@]3(C)[C@@H](O)[C@H]12 | ? | i | ?
4 | O=[N+]([O-])c1ccc(/C=N/NC(=S)Nc2ccc(Cl)cc2Cl)s1 | ? | i | ?
5 | CC(=O)Oc1c(C)c(C)c2c(c1C)CC[C@@](C)(CCC[C@H](C)CCC[C@H](C)CCCC(C)C)O2 | -4.9% | 1.5% | -2.8%
6 | CCN1CCCC1CNC(=O)c1cc2cc(F)ccc2[nH]1 (stereo not given) | -2.2% | 0.1% | 16.2%
7 | CCCS(=O)(=O)c1c(S(=O)(=O)CCC)c2c(C)cccn2c1C(=O)N/N=C/c1cc(O)cc(O)c1 | 6.0% | 7.3% | 37.1%
8 | Cc1cc(=O)[nH]c(N/N=C/c2ccccn2)n1 | 4.8% | ? | -11.2%
9 | Cc1ccc(N=Cc2cc(Br)cc(Cl)c2O)cc1 | -2.8% | 0.5% | ?
10 | O=C1NCCCC1C(=O)N/N=C/c1cc([N+](=O)[O-])ccc1O (stereo not given) | -0.9% | 0.8% | 15.8%
11 | C=C(CC)C(=O)c1ccc(OCC(=O)O)c(Cl)c1Cl | ? | 3.6% | ?
12 | Oc1c(Cl)cc(Cl)cc1Sc1cc(Cl)cc(Cl)c1O | 17.0% | nt | ?

Part of the list above in order of molar mass, highest first.
# | compound | M. tuberculosis HTS | VEEV TC-83 Vero | tuberculosis growth
7 | CCCS(=O)(=O)c1c(S(=O)(=O)CCC)c2c(C)cccn2c1C(=O)N/N=C/c1cc(O)cc(O)c1 | 6.0% | 7.3% | 37.1%
12 | Oc1c(Cl)cc(Cl)cc1Sc1cc(Cl)cc(Cl)c1O | 17.0% | nt | ?
2 | C=C1C[C@]23C[C@@]1(O)CC[C@H]2[C@@]12C=C[C@H](O)[C@@](C)(C(=O)O1)[C@H]2[C@@H]3C(=O)O | 0.1%&-9.2% | 0.2%&0.5% | -0.4%&-5.3%

New compounds follow.
# | compound | M. tuberculosis HTS | VEEV TC-83 Vero | tuberculosis growth
13 | CCN(CC)CC(=O)Nc1c(C)cccc1C | nt | 0.2% | -8.6%&-0.8%&-10.5%
14 | CCN1CCN(C(=O)c2cc3ccc(OC)cc3[nH]2)CC1 | -0.2% | 1.3% | -8.4%
15 | C=CCN(c1ccccc1)S(=O)(=O)c1cc2c(cc1C)N(C)CCO2 | -6.0% | 5.1% | 12.8%
16 | O=C1CSC(=S)N1c1cccnc1 | -0.3% | 0.0% | 11.9%
17 | O=C(O)CC(O)(CC(=O)O)C(=O)O | -7.1% | i | -9.3%
18 | CC(C)(C)C(=O)/C(=C/c1cccc([N+](=O)[O-])c1)n1cncn1 | ? | i | ?
19 | O=C(Nc1ncccc1O)c1c(O)c2ccccc2[nH]c1=O | 9.3% | 2.9% | 21.9%
20 | COc1ccc(C(=O)NC(=S)NNC(=O)c2cnccn2)cc1OC | -7.7% | 13.7% | -16.6%
21 | O=C(/C=C/c1ccccc1)NC(=S)NNC(=O)c1cnccn1 | 5.9% | ? | -7.9%
22 | CCOc1cc2c(cc1OCC)-n1cccc1C(c1ccc(C(C)C)cc1)NC2 (stereo not given) | 20.6µM* | 4.2% | ?
23 | Oc1c(Cl)cc(Cl)c(Cl)c1Cc1c(O)c(Cl)cc(Cl)c1Cl | 3.1% | i | ?

Quoted from above: compounds 10 to 20
# | compound | M. tuberculosis HTS | VEEV TC-83 Vero | tuberculosis growth
10 | O=C1NCCCC1C(=O)N/N=C/c1cc([N+](=O)[O-])ccc1O (stereo not given) | -0.9% | 0.8% | 15.8%
11 | C=C(CC)C(=O)c1ccc(OCC(=O)O)c(Cl)c1Cl | ? | 3.6% | ?
12 | Oc1c(Cl)cc(Cl)cc1Sc1cc(Cl)cc(Cl)c1O | 17.0% | nt | ?
13 | CCN(CC)CC(=O)Nc1c(C)cccc1C | nt | 0.2% | -8.6%&-0.8%&-10.5%
14 | CCN1CCN(C(=O)c2cc3ccc(OC)cc3[nH]2)CC1 | -0.2% | 1.3% | -8.4%
15 | C=CCN(c1ccccc1)S(=O)(=O)c1cc2c(cc1C)N(C)CCO2 | -6.0% | 5.1% | 12.8%
16 | O=C1CSC(=S)N1c1cccnc1 | -0.3% | 0.0% | 11.9%
17 | O=C(O)CC(O)(CC(=O)O)C(=O)O | -7.1% | i | -9.3%
18 | CC(C)(C)C(=O)/C(=C/c1cccc([N+](=O)[O-])c1)n1cncn1 | ? | i | ?
19 | O=C(Nc1ncccc1O)c1c(O)c2ccccc2[nH]c1=O | 9.3% | 2.9% | 21.9%
20 | COc1ccc(C(=O)NC(=S)NNC(=O)c2cnccn2)cc1OC | -7.7% | 13.7% | -16.6%

Some of the compounds tested. The share of hits here may be higher or lower than overall.
